B2AR ag – activates human beta-2 adrenergic receptor causing internalization; P07550; Am2.2-beta2AR cells, FAP receptor internalization, flow cytometry; reference of the scale not given here; response, % (test concentration not listed); actives 0.43% (n = 340,000);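 active = response above a set limit, near 3 SD of response in nonfluorescent compounds, cut at about 42% in these data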;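 also: stock transfer was 100 nL into about 11 µL; a reference agonist was the positive control; negative values mostly stem from fluorescent compounds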
Vif A3G – inhibitors of Vif binding to APOBEC3G peptide, primary screen, biochemical, TR-FRET, GST-Vif 1-94, biotin-A3G peptide, dose response retest (AID 1117319). TR-FRET GST-Vif / biotin-A3G peptide binding; higher % means a stronger effect; test concentration not given here; strong numbers were not always called active. one-dose inhibition, %; IC50 in µM for titrated hits. actives 0.57% (n = 260,000);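 active = above the screen mean plus three standard deviations and confirmed in dose response; inconclusive = results disagree or hit not tested in dose response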;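 also: Vif residues 1-94 fused to GST binding biotinylated APOBEC3G peptide 110-148; 0% = full assay without inhibitor and 100% = GST in place of GST-Vif; retest series ran down from 100 µM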
RanGTP-Impb inh – inhibitors of RanGTP-importin-beta interaction, primary screen, biochemical, FRET, CFP-Ran, YFP-importin-beta, homogeneous; cell-free CFP-Ran/YFP-importin-beta FRET ratio; inhibition, % (concentration not given with the values); actives 1.1% (n = 300,000);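 active = most replicates above 15%; inconclusive = exactly half above 15%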;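 also: 0% = DMSO wells and 100% = Ran loaded with GDP instead of GTP; wells of about 40 µL received 100 nL stock; the first replicate is given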
HNF4A DNA FP – change in binding of human HNF4 alpha to DNA; P41235; HNF4a-FITC DNA binding, fluorescence polarization, 1 h; activity change, % at 10 µM; actives 0.3% (n = 360,000); in the data active = activity change above about 30%, passing the limit was not always enough;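 also: controls were the assay level and a saturating level of protein; the project sought stronger binding though the title names inhibitors; some compounds called inactive have numbers as strong as hits; positive values seem to mean higher polarization but the record does not say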
ALR inh – human ALR oxidase inhibition via reduced H2O2; P55789; purified ALR, DTT oxidation, H2O2 HRP-luminol luminescence; inhibition, % (no concentration beside the values); actives 3.8% (n = 290,000); AID 485317;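 active = mean and each replicate at 75% or more; inconclusive = only one of the two met; inactive = neither met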;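 also: stock transfer was 7.5 nL into about 7.5 µL; 0% = neutral wells and 100% = wells with inactivated enzyme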
Calb FLC – C. albicans growth modulation with fluconazole; C. albicans CaCi-2 (fluconazole-resistant clinical isolate) + fluconazole, Alamar Blue growth, 48 h; growth inhibition, % (test concentration not listed); actives 0.57% (n = 300,000); AID 1979;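 active = most replicates above 75%; inconclusive = exactly half above 75%; inactive = most below 75%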;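 also: all wells also contain fluconazole at 8 µg/ml as a sub-toxic cotreatment; 0% = median of DMSO wells and 100% = median of geldanamycin control wells; wells of about 8 µL received 7.5 nL stock; the first replicate is given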
LANA-H2A inh – blocks KSHV LANA binding to histone H2A/H2B; inhibition, % (no concentration beside the values); cell-free LANA-H2A/H2B peptide, fluorescence polarization; actives 0.6% (n = 320,000); in the data active = inhibition mostly above about 10%, no sharp cut-off; inactive = mostly below about 6.7%;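 also: stock transfer was 7.5 nL into about 10 µL; 0% = median of vehicle wells and 100% = median of positive control wells; one replicate is shown; the record names a cut of 25% in any replicate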
Target sequence (Q9QR71 whole entry, looked up): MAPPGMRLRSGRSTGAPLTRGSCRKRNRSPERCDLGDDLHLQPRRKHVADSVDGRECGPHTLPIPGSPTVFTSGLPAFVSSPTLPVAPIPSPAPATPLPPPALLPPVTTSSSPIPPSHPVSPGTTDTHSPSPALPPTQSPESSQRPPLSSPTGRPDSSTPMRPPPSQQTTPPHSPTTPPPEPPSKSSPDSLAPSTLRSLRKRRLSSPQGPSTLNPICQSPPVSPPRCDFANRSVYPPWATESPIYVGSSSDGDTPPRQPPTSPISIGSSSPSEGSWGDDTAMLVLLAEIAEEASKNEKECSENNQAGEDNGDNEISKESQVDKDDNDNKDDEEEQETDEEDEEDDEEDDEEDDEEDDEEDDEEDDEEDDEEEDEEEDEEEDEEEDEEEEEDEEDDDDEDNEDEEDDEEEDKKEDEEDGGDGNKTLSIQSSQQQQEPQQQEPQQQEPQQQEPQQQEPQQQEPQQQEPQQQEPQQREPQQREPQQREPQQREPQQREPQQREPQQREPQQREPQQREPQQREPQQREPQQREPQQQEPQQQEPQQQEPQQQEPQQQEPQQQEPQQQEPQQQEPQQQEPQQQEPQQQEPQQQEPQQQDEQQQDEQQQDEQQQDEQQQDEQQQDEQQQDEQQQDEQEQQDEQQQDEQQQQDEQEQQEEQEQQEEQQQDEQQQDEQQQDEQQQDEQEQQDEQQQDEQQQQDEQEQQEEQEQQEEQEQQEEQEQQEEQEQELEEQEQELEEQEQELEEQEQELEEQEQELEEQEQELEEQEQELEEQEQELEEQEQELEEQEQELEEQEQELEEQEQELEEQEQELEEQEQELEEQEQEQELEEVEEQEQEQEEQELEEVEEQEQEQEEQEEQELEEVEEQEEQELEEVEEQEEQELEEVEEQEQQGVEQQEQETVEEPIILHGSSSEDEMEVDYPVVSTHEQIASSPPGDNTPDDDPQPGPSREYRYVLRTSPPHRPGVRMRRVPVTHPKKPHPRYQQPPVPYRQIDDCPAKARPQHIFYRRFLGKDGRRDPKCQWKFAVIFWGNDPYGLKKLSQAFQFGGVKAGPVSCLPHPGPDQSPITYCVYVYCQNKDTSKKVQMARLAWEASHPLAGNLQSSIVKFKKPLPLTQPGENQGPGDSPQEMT
An asterisk follows results filed as active; ? = inconclusive; . = not tested or not shown; & = joins results of further samples.

SMILES | B2AR ag | Vif A3G | RanGTP-Impb inh | HNF4A DNA FP | ALR inh | Calb FLC | LANA-H2A inh
CCCN1CCN(C2CCCCC2NS(=O)(=O)c2ccc(Cl)cc2)CC1 (configuration not stated) | -1 | 0% | 4.1 | -9.5 | -18 | -19 | 8.3
O=c1oc2ccccc2c(N2CCCCC2)c1[N+](=O)[O-] | 0 | -10% | -2.8 | -0.8 | -1 | -15 | -3.4
CSc1ccccc1NC(=O)C1=CC(c2cccs2)=NS(=O)(=O)N1C | -16 | . | -0.2 | 1.5 | -12 | -8 | -3.4
Cc1cc(C)c2nc(SCC(=O)N(C)C3CCS(=O)(=O)C3)cc(C)c2c1 (configuration not stated) | 1 | -95% | -1.8 | . | -16 | -41 | -4.8
CCOC(=O)C1CCN(C(=O)Nc2cccc(Cl)c2)CC1 | 4 | 8% | 1.3 | -17 | -2 | 2 | 0.1
CCS(=O)(=O)N1CCN(c2ccc(C(=O)NC34CC5CC(CC(C5)C3)C4)cc2[N+](=O)[O-])CC1 | 7 | 33% | 1.9 | -2.5 | . | -2 | .
COc1ccccc1C1(CC(=O)N2CCCCC2)CCOC(C(C)C)C1 (configuration not stated) | -1 | -4% | 4.4 | -2.2 | -10 | ? | 1.3
Cc1cc(Oc2ccccc2)nc(NCc2ccccc2)n1 | -7 | 1% | -2.3 | 0.0 | -1 | -2 | 3.3
CCOC(=O)c1ccc(NC(=O)CN(c2ccc(C)cc2)S(=O)(=O)c2c(C)n[nH]c2C)cc1 | -1 | 2% | 0.8 | 3.8 | 0 | 6 | 0.1
O=C(Nc1nc(-c2ccc(S(=O)(=O)N3CCCCCC3)cc2)cs1)c1cccs1 | 2 | -19% | -4.5 | -0.2 | 3 | 8 | -1.3
CCCn1c(CCc2ccccc2)nnc1SCC(=O)N1CCCC1 | -2 | 7% | -1.0 | -1.4 | -3 | -8 | 1.0
COCc1cc(CN2CCCC2)c(O)c2ncccc12 | 4 | ? | 14 | 0.5 | -14 | 5 | -9.7
Nc1ccc(C(=O)OCC(=O)N2c3ccccc3Sc3ccccc32)cc1[N+](=O)[O-] | -3 | -14% | . | -0.5 | -17 | . | -7.3
O=C(/C=C/c1ccco1)NC(=S)NNC(=O)c1ccco1 | 7 | 31% | 5.9 | -5.1 | 98* | 7 | 0.2
Cc1ccc(N=Nc2cc(C)ccc2O)c(C)c1 | -12 | -4% | -1.9 | 0.3 | -19 | 4 | 4.5
O=C(CSc1ccc2nnc(-c3ccc(F)cc3)n2n1)N1CCCc2ccccc21 | -7 | . | 0.2 | 0.4 | -29 | -4 | -2.0
N/C(=N\OC(=O)c1cccc([N+](=O)[O-])c1)c1cccnc1 | 7 | -7% | -0.8 | -1.2 | 1 | 32 | -1.2
CCOc1cc(/C=N/NC(=O)NN(C)c2ncc(C(F)(F)F)cc2Cl)ccc1O | -7 | -6% | 8.6 | 2.0 | 99* | 0 | -1.4
CCN(CC)S(=O)(=O)c1cccc(C(=O)OCC(=O)N2CC(=O)Nc3ccccc32)c1 | -11 | -1% | 5.0 | -1.8 | -12 | 12 | -0.7
CCc1c(C(C)S(=O)(=O)c2ccc(C)cc2)[nH]c(=O)n1-c1ccc(OC(F)(F)F)cc1 (configuration not stated) | 4 | 6% | 2.5 | 12 | 9 | -7 | 6.2
CS(=O)(=O)N1CCN(c2ccc(C(=O)NC34CC5CC(CC(C5)C3)C4)cc2[N+](=O)[O-])CC1 | 10 | 8% | -2.9 | -2.5 | -3 | 3 | 1.6
COCc1ccc(C(=O)N(C)C2CCCN(Cc3ccccc3F)C2)o1 (configuration not stated) | 2 | . | -0.1 | -0.1 | -1 | -10 | -4.8
O=C(C(=O)N1CCN(c2cccc(Cl)c2)CC1)N1CCCCC1 | -7 | . | -3.1 | 3.4 | 5 | -6 | -2.6
O=[N+]([O-])c1ccc(N2CCN(c3cccc(Cl)c3)CC2)nc1 | 2 | -3% | -4.3 | -0.1 | . | 12 | 1.4
O=C(NCCCn1ccnc1)C1CCN(S(=O)(=O)c2cc([N+](=O)[O-])ccc2Cl)CC1 | -9 | 12% | . | -7.3 | -24 | . | -3.4
SMILES | B2AR ag | Vif A3G | RanGTP-Impb inh | HNF4A DNA FP | ALR inh | Calb FLC | LANA-H2A inh
Cc1ccc(N(CC(=O)N/N=C/c2ccc(OC3CSC3)cc2)S(=O)(=O)c2ccccc2)cc1 | -9 | 0% | 0.4 | 0.0 | -12 | -12 | 5.7
O=C(NCCCN1CCOCC1)C(Sc1ccccc1)c1ccccc1 (configuration not stated) | 8 | -2% | 1.7 | -1.1 | -9 | 0 | 53*
C[C@H](NC(=O)c1nc[nH]c1C(=O)NC1CCN(C(=O)OC(C)(C)C)CC1)C(=O)OC(C)(C)C | -3 | . | 6.5 | 0.4 | . | 16 | -3.9
CCOC(=O)COc1c(/C=N\O)cc(Cl)cc1OC | 11 | . | 6.8 | 1.1 | -8 | 23 | 4.2
COc1ccc(N(CC(=O)Nc2cc(C)ccc2C)S(=O)(=O)c2c(C)[nH]c(=O)[nH]c2=O)cc1 | -3 | -4% | 12 | -1.5 | -3 | 5 | -1.6
O=C(NCC1CCN(C(=O)c2c(F)c(F)c(F)c(F)c2F)CC1)c1c(F)c(F)c(F)c(F)c1F | -1 | . | -2.1 | 0.0 | -14 | 17 | -18
COc1cccc(C2SCC(=O)N2c2ccc(Br)cc2)c1OC (configuration not stated) | 6 | -3% | -1.6 | 4.0 | 3 | 14 | 5.1
Oc1c(Cl)cc(Cl)cc1/C=N/c1nc(-c2ccc(Cl)cc2)cs1 | -4 | -3% | -4.3 | 0.7 | -3 | 59 | -0.8
O=C(Nc1nnc(CCN2CCCCC2)s1)c1ccccc1Cl | -4 | -12% | 3.8 | 5.9 | -7 | 2 | -0.1
O=C(N/N=C/c1cccnc1)c1ccccc1[N+](=O)[O-] | 5 | . | ? | 1.5 | . | -3 | -5.5
CCC1CCC(N2CCN(c3ccccc3F)CC2)CC1 (configuration not stated) | 0 | . | 7.7 | -4.5 | -1 | -8 | 0.8
CN(C)c1ccc(CC(=O)c2nc3ccccc3s2)cc1 | 2 | 17% | 2.0 | 6.1 | 37 | -5 | 1.0
COc1ccc(C(=O)C2CCCN(C(=O)Cn3ccc(C)n3)C2)cc1OC (configuration not stated) | 3 | . | -0.4 | -2.7 | -11 | -4 | 3.0
O=C(Nc1ccc2c(c1)OCO2)O[C@@H]1C[C@H]2CCC(=O)N3CC[C@@H](C1)[C@@H]23 | 1 | . | -2.2 | 2.5 | 2 | 1 | -12
COc1ccc(OC)c(Cc2nnc(CCC(=O)N3CCCCCC3)o2)c1 | 0 | 3% | -1.2 | -0.3 | -2 | 12 | 0.7
O=C(CP(=O)(c1ccccc1)c1ccccc1)Nc1nc2ccc(Cl)cc2s1 | 6 | -5% | 8.3 | 1.1 | . | 20 | 0.2
CNC(=O)/C(C#N)=C/c1c(N2CCCCCC2)nc2c(C)cccn2c1=O | -6 | -4% | 3.2 | 3.5 | -1 | 21 | 0.3
Cc1ccc(C(C)NC(=S)NC2CCCCC2)cc1C (configuration not stated) | 0 | . | 0.9 | 0.7 | 10 | -38 | -3.8
O=c1c(/C=N/O)coc2ccc(Cl)cc12 | 2 | . | 4.8 | 5.3 | 19 | -2 | 0.5
CCN(CCO)C1CC(=O)N(c2ccccc2C)C1=O (configuration not stated) | -8 | 0% | ? | 4.1 | -13 | -11 | 5.4
CC(=O)N1CCN(CC(=O)Nc2cccc(S(=O)(=O)N3CCCCC3)c2)CC1 | -4 | -4% | . | 3.2 | -2 | . | -0.6
Cc1cc(C)c(NC(=O)CC(C)(C)C)c(Cl)c1 | -3 | 28% | 0.0 | -1.8 | . | -9 | 2.2
COc1ccc(C(=O)/C=C/c2cc(OC)c(O)c(OC)c2)c(F)c1 | -28 | ? | -2.3 | 8.6 | . | 7 | -2.7
CC1CN(C(=O)COC(=O)c2c(Cl)cccc2Cl)CC(C)O1 (configuration not stated) | -3 | -5% | -2.9 | -1.1 | -5 | 2 | 4.6
COCCN(C(=O)Nc1ccc(OC)cc1)c1nc2ccccc2s1 | 6 | . | 1.3 | 2.8 | -18 | 3 | -1.1
SMILES | B2AR ag | Vif A3G | RanGTP-Impb inh | HNF4A DNA FP | ALR inh | Calb FLC | LANA-H2A inh
COc1ccccc1N1CCN(C(=O)c2cccc(C(=O)N3CCN(c4ccccc4OC)CC3)c2)CC1 | 12 | -15% | -0.1 | 0.7 | 12 | 17 | -1.8
CC(=O)c1c(C(C)=O)c(C)n(-c2ccc(C)c(NC(=O)c3ccccc3Cl)c2)c1C | -6 | 2% | 9.1 | -3.2 | -62 | -24 | -2.3
COc1ccc(S(=O)(=O)Nc2ccc3c(c2)OCO3)cc1C(=O)O | 5 | -1% | 3.4 | 0.3 | -8 | -3 | -2.9
NC(=S)NNC(=O)c1cc(C(F)(F)F)cc(C(F)(F)F)c1 | 0 | 2% | -1.6 | 0.3 | . | -26 | -0.7
CC1(C)C(O)=C(c2nc3ccccc3[nH]2)C(=N)N1c1ccccc1 | -5 | 8% | -3.4 | -2.3 | 48 | 100* | -3.3
CCCOc1ccc(/C=C/c2[nH]c(=O)[nH]c(=O)c2[N+](=O)[O-])cc1OCC | 12 | 5% | -13 | 12 | 12 | -3 | -5.0
Cc1c(C(=O)NCc2ccco2)oc2c(F)cccc12 | -2 | 0% | . | 2.6 | 0 | . | -2.3
Cc1c(C(N)=O)sc2ncn(CC(=O)NCCc3ccccc3)c(=O)c12 | -5 | 1% | 4.0 | 4.0 | -6 | 17 | 1.7
O=C(Cc1ccc(Cl)cc1)N/N=C/c1cccc(O)c1 | -2 | 12% | -2.4 | -3.1 | 31 | -27 | -0.9
C1=C2C[N+]3(CCCC3)CC2Cc2ccc3ccccc3c21 (configuration not stated) | -1 | -3% | -2.8 | 2.2 | -19 | -2 | 4.9
CCN(CC(=O)NC1CCS(=O)(=O)C1)C(=O)/C=C/c1cccs1 (configuration not stated) | 15 | . | 2.8 | 0.7 | 6 | 0 | 3.1
CN(C)CC(=O)Nc1nc(-c2ccccc2)cs1 | 7 | 1% | 5.0 | 0.1 | 5 | 12 | -7.8
CCOC(=O)C1=C(C)NC(C)=C(C(=O)OCC)C1c1ccc([N+](=O)[O-])s1 | -8 | 1%&-6% | -2.3 | -2.6&4.1 | -12 | 2 | 1.8
CC(NC(=O)CCCC1CCCCC1)c1ccc(S(N)(=O)=O)cc1 (configuration not stated) | -3 | -8% | -6.8 | -4.6 | -1 | -6 | 4.3
Cc1ccccc1OCC(=O)NCC(=O)OCC(=O)c1ccc2ccccc2c1 | -5 | 3% | -2.7 | -2.2 | -13 | 12 | -0.7
O=C(/C=C/c1cccc([N+](=O)[O-])c1)NCc1cccnc1 | 3 | ? | -1.9 | 1.9 | -4 | 0 | 11
Cc1ccccc1C(=O)NC(=S)Nc1cccc(NC(=O)C(C)C)c1 | 3 | -13% | -1.0 | -0.8 | -9 | 25 | -1.4
COc1cccc(CNC(=O)N[C@@H](CC(C)C)C(=O)O)c1 | -7 | 2% | 3.5 | -3.7 | -20 | 27 | 0.8
O=C(NCCCN1CCCC1=O)c1ccc(Cl)c(S(=O)(=O)N2CCCCC2)c1 | 3 | -6% | . | 0.6 | . | . | -0.2

3 compounds from above, arranged by molar mass, descending.
SMILES | B2AR ag | Vif A3G | RanGTP-Impb inh | HNF4A DNA FP | ALR inh | Calb FLC | LANA-H2A inh
Cc1c(C(N)=O)sc2ncn(CC(=O)NCCc3ccccc3)c(=O)c12 | -5 | 1% | 4.0 | 4.0 | -6 | 17 | 1.7
COc1ccc(S(=O)(=O)Nc2ccc3c(c2)OCO3)cc1C(=O)O | 5 | -1% | 3.4 | 0.3 | -8 | -3 | -2.9
C1=C2C[N+]3(CCCC3)CC2Cc2ccc3ccccc3c21 (configuration not stated) | -1 | -3% | -2.8 | 2.2 | -19 | -2 | 4.9

From PubChem
